ALR inh: inhibitors of human sulfhydryl oxidase ALR; AID 485317; inhibition, % (test concentration not listed); P55789; purified ALR, DTT oxidation, H2O2 HRP-luminol luminescence; 3.8% of 290,000 active;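 active = mean and each replicate at 75% or more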;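 also: stock transfer was 7.5 nL into about 7.5 µL; 0% = neutral wells and 100% = wells with inactivated enzyme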
LANA-H2A inh: blocks KSHV LANA binding to histone H2A/H2B; 0.6% of 320,000 active; inhibition, % (no concentration beside the values); AID 2629; cell-free LANA-H2A/H2B peptide, fluorescence polarization; in the data active = inhibition mostly above about 10%, no sharp cut-off; inactive = mostly below about 6.7%;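 also: stock transfer was 7.5 nL into about 10 µL; 0% = median of vehicle wells and 100% = median of positive control wells; one replicate is shown; the record names a cut of 25% in any replicate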
Target sequence (Q9QR71 whole entry, looked up): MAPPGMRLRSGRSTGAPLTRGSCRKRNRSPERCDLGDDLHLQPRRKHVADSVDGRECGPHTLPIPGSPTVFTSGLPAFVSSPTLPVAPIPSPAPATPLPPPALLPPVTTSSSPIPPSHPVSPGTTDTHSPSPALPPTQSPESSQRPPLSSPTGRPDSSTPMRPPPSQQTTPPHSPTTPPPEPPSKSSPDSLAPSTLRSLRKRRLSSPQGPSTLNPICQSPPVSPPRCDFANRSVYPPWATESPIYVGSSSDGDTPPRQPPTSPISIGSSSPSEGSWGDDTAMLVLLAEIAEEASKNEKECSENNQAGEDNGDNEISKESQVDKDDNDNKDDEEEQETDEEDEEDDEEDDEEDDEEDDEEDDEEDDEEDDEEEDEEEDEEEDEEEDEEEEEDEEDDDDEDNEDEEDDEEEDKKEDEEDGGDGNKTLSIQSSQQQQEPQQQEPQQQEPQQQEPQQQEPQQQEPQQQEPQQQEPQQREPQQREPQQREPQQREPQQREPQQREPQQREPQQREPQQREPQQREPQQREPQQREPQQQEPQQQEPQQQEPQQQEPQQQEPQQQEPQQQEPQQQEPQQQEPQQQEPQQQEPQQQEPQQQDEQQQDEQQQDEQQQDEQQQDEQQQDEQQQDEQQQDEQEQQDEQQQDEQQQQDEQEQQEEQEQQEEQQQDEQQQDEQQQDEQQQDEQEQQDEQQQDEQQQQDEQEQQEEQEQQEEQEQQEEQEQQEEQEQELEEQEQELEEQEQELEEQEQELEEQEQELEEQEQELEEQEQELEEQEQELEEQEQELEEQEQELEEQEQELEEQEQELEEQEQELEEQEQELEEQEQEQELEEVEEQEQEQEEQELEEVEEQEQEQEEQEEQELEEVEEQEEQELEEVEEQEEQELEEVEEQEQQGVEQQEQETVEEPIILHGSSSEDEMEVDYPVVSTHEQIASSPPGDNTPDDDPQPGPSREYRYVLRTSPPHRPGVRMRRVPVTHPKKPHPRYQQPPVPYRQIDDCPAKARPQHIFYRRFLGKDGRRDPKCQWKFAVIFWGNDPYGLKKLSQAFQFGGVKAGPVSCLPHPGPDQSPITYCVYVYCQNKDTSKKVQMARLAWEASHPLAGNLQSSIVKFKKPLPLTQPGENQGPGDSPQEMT
The depositor's hits bear a star. An excerpt. The share of hits here may be higher or lower than overall.

Order of values – ALR inh, LANA-H2A inh
1: CC(C)(Oc1ccc(-c2ccco2)cc1)C(=O)O
  -5, -3.2
2: Oc1ccc(N=C/C=C/c2ccc(Br)cc2)cc1-c1nc2ccccc2s1
  -10, 3.8
3: O=C(CSCc1ccco1)c1ccc(Cl)s1
  98*, 0.6
4: Fc1ccc2[nH]c3c(N4CCN(C5CCCCC5)CC4)ncnc3c2c1
  50, -0.1
5: COCc1cc(C)nc(OCC(=O)N/N=C/c2ccc(-c3cccc([N+](=O)[O-])c3)o2)c1C#N
  -6, -1.7
6: O=[N+]([O-])c1ccc(Cl)c(/C=N/n2c(-c3cccnc3)n[nH]c2=S)c1
  17, -2.0
7: CC1(O)C(=O)C=C2C=C(C3CC3)OC=C2C1=O (stereo not drawn)
  -12, -0.7
8: CC(C)(C)OC(=O)NCCCC1=CC2=CC(=O)C(C)(OC(=O)c3ccco3)C(=O)C2=CO1 (stereo not drawn)
  3, 0.3
9: C=CC[C@@H]1C=C[C@H](O/N=C/c2ccc(C(=O)N3[C@H](c4ccc(C)cc4)[C@@H](C)CC[C@H]3C(=O)OC)cc2)[C@@H](CO)O1
  10, -10
10: CC(C)(C)n1nc2c(c1NC(=O)Cc1cccs1)CSC2
  -3, -6.0
11: N#CC1=C(N)Oc2c(ccc3ccccc23)C1c1cccs1 (stereo not drawn)
  -22, -6.6
12: CC1(OC(=O)C2CCCC2)C(=O)C=C2C=C3CCCN3C=C2C1=O (stereo not drawn)
  -33, 2.4
13: O=C(COC(=O)CC(c1ccccc1)c1ccccc1)Nc1ccc(F)c(F)c1
  -14, -0.2
14: O=C(O)/C(=C/c1ccco1)c1ccccc1
  49, 8.2
15: Cc1cccc(N2CCN(C(=O)c3ccc4c(c3)NC(=O)C(CSCc3ccc(F)cc3)N4)CC2C)c1 (stereo not drawn)
  97*, 5.5
16: COC(=O)Nc1nc2ccc(C(=O)c3ccc(F)cc3)cc2[nH]1
  -3, -0.4
17: Nc1c2c(nc3ccc(Br)cc13)N(C1CCCCC1)CC2
  11, 2.3
18: C=CCNC(=O)c1cc2c(=O)n3cc(C)ccc3nc2nc1NCC1CCCO1 (stereo not drawn)
  3, 0.0
19: Cc1ccc(S(=O)(=O)NN2C(=O)/C(=C/c3cccn3C)SC2=S)cc1
  97*, -11
20: CCCN1C(=O)/C(=c2\s/c(=C3\C=Cc4ccccc4N3CC)c(=O)n2-c2ccccc2)SC1=S
  -14, 0.6
21: FC(F)(F)c1cccc(NC(=S)NNC(=S)Nc2cccc(C(F)(F)F)c2)c1
  -1, 1.1
22: COc1cccc(N2CCN(c3ncnc4c3[nH]c3ccccc34)CC2C)c1 (stereo not drawn)
  15, -4.0
23: O=c1c2ccc([N+](=O)[O-])c3cccc(c32)c2nc3ccccc3n12
  -2, -4.7
24: O=C1Nc2ccccc2C12OCCS2 (stereo not drawn)
  -6, -0.5
25: CCOC(=O)C1Nc2c(F)cc(C)cc2C2C=CCC12 (stereo not drawn)
  -17, 5.5
26: COC/C=C/C1=CC2=CC(=O)C(C)(OC(=O)c3cnc4ccccc4n3)C(=O)C2=CN1c1cccc(C#N)c1 (stereo not drawn)
  -1, -2.0
27: COc1cc(/C(C)=C/c2ccccc2)c2c(c1)oc1ccccc12
  -14, 4.9
28: Cc1cc(C=O)c2c(c1)C=CC1(Oc3ccccc3C(=O)N1C)O2 (stereo not drawn)
  18, -2.3
29: CCC(C)n1c(-c2ccco2)nc2nc3ccccc3nc21 (stereo not drawn)
  64, -2.7
30: CNc1nc(SC)n(C)c(=O)c1N=O
  -6, -1.3

Entries shown so far that have bromine (two):
Order of values – ALR inh, LANA-H2A inh
2: Oc1ccc(N=C/C=C/c2ccc(Br)cc2)cc1-c1nc2ccccc2s1
  -10, 3.8
17: Nc1c2c(nc3ccc(Br)cc13)N(C1CCCCC1)CC2
  11, 2.3

Next part
Order of values – ALR inh, LANA-H2A inh
31: COc1ccc(C2CC(=O)C(C(c3ccc(O)cc3)C3C(=O)CC(c4ccc(OC)cc4)CC3=O)C(=O)C2)cc1 (stereo not drawn)
  3, 6.7
32: CC(=O)[C@@H]1[C@@H]2C(=O)N(C3CCCCC3)C(=O)[C@@H]2C2c3ccccc3C=CN21 (stereo partly drawn)
  -18, 2.4
33: CC(=O)Oc1c(C)cc(O)c2ccccc12
  53, -2.8
34: Cc1ccc(C(C)C)c(OCC(=O)NN=C(CCl)CCl)c1
  -20, -0.1
35: N/C(=N\c1nc(C(F)(F)F)cc(=O)[nH]1)Nc1ccc(Cl)cc1
  -2, 1.4
36: CCC1=C/C(=C\c2ccc3c(c2)OCO3)C(=O)S1
  -5, -0.1
37: O=C1c2cccc3c2[C@H](CCC3)CN1[C@@H]1CN2CCC1CC2
  -20, -1.6
38: Cn1c(C(C#N)C2=C(Cl)C(=O)N(c3ccccc3)C2=O)nc2ccccc21 (stereo not drawn)
  0, -3.6
39: Cc1ccc(NC(=S)/C(=C(\[O-])c2ccc(C)c([N+](=O)[O-])c2)[n+]2ccccc2)cc1C
  1, -1.6
40: CCN(CC)CCN1C(=O)C(O)=C(C(=O)c2ccc(C)o2)C1c1ccccn1 (stereo not drawn)
  -12, 16*
41: Cc1ccc(NC(=S)Nc2ccc(S(=O)(=O)Nc3ncccn3)cc2)cc1Cl
  5, 0.2
42: Cc1cc(-c2cc(C(=O)Nc3ccccc3)on2)nc(NC2CCCC2)n1
  -5, -5.0
43: COc1ccc(C2C=C(c3ccccc3)Nc3nc(NC(C)=O)nn32)cc1 (stereo not drawn)
  69, -0.8
44: OCCCc1nc2n(n1)C(c1cccs1)C=C(c1ccccc1)N2 (stereo not drawn)
  29, 68*
45: O=C(C1=C[C@@H]2[C@H]3C(=O)N(c4ccccc4)C(=O)[C@H]3[C@@H](C(=O)c3ccc(Cl)cc3)N2C=C1)c1ccccc1
  -20, -2.5
46: N#CCCS(=O)(=O)c1nnnn1-c1ccccc1
  65, -2.2
47: C/C(=N\O)C1CCCCC1
  -1, -6.5
48: O=C(c1ccc(N2CCN(C3CC(=O)N(c4ccc(F)cc4)C3=O)CC2)cc1)c1cccnc1 (stereo not drawn)
  -6, 0.0
49: CCN(CC)c1ccc(/C=N/NC(=O)C(O)(c2ccccc2)c2ccccc2)o1
  -1, -0.1
50: N#CC1(C#N)C2=C(CCCC2)NC(c2ccccc2)C1(C#N)C#N (stereo not drawn)
  -2, 1.2
51: CCCOc1ccc2oc(=O)c3c(c2c1)CCCN3C(=O)CN1CCN(C(=O)c2ccco2)CC1
  -5, -1.4
52: COc1cc(C(=O)NS(=O)(=O)c2ccccc2C)ccc1Cc1cn(C)c2ccc(NC(=O)OC3CCCC3)cc12
  97*, -9.1
53: O=C(O)C(Cc1ccccc1)N1C(=O)/C(=C/c2cccc3ccccc23)SC1=S (stereo not drawn)
  47, -4.6
54: CC(=O)OCCCN1C(=O)c2cccc3cc(Br)cc(c23)C1=O
  0, -1.6
55: O=C(Sc1nnnn1C1CCCCC1)c1cccs1
  9, -1.1
56: Cc1ccc(S(=O)(=O)NC(=O)c2ccc(-c3ccc(-c4ccccc4)cc3)o2)c(C)c1
  40, -4.0
57: Cc1cc2c(n1-c1ccc(C(=O)O)cc1)CCCCC2
  46, 5.3
58: O=C(O)c1cc(-c2ccc(/C=c3\sc4nc5ccc(Br)cc5n4c3=O)o2)ccc1Cl
  93*, -11
59: O=C(CC1Nc2ccccc2NC1=O)c1ccccc1 (stereo not drawn)
  1, -2.8
60: C/C(CCN1CCCCc2nc(C)c(C)cc21)=N\O[C@@H](C)CN1CCCCc2nc(C)c(C)cc21
  26, -2.3

Grouped by structure, the entries above containing a nitro group on carbon.
Order of values – ALR inh, LANA-H2A inh
5: COCc1cc(C)nc(OCC(=O)N/N=C/c2ccc(-c3cccc([N+](=O)[O-])c3)o2)c1C#N
  -6, -1.7
6: O=[N+]([O-])c1ccc(Cl)c(/C=N/n2c(-c3cccnc3)n[nH]c2=S)c1
  17, -2.0
23: O=c1c2ccc([N+](=O)[O-])c3cccc(c32)c2nc3ccccc3n12
  -2, -4.7
39: Cc1ccc(NC(=S)/C(=C(\[O-])c2ccc(C)c([N+](=O)[O-])c2)[n+]2ccccc2)cc1C
  1, -1.6

Carrying on:
Order of values – ALR inh, LANA-H2A inh
61: CCN(CC)CCCNC(=O)c1ccc2c(SCC(=O)O)c3c(nc2c1)CCC3
  -6, 3.3
62: COc1cccc(NC(=O)c2cc3cccc(OC)c3o/c2=N\O)c1
  52, 1.6
63: COc1cc(/C=N/N=C/c2c[nH]c(=O)c(C#N)c2Nc2ccccc2)ccc1O
  78*, 2.0
64: OC(CN1CCNCC1)Cn1ccc2ccccc21 (stereo not drawn)
  -4, 2.1
65: CC1(OC(=O)C2CCCC2)C(=O)C=C2C=C(C3CC3)OC=C2C1=O (stereo not drawn)
  -14, -2.2
66: Cc1ccccc1Nc1nc(-c2sc(NC(=O)c3cccc(Cl)c3)nc2C)cs1
  -15, -0.8
67: CC(O)(CC(=O)O)CC(=O)O
  -10, 6.6
68: COC/C=C/C1=CC2=CC(=O)C(C)(OC(=O)c3cnc4ccccc4n3)C(=O)C2=CN1CCc1c[nH]c2ccccc12 (stereo not drawn)
  -42, -3.1
69: Cc1cc2nc(-c3ccc(SCC(=O)NC(C)C)nc3)[nH]c2cc1C
  -4, 2.4
70: COc1ccc(/C=N/n2cnc3c([nH]c4ccc(Br)cc43)c2=O)cc1CN1CCOCC1
  -4, 2.3
71: NC(=O)N/N=C/c1cn(-c2ccccc2)nc1-c1cccnc1
  2, 0.2
72: COc1ccc(/C=C2\SC(=Nc3ccccc3)NC2=O)cc1
  -3, 5.3
73: CCOc1ccccc1Nc1nc(-c2sc(NC(=O)c3ccccc3)nc2C)cs1
  2, -1.2
74: CCC(=O)Nc1nc2n(n1)C(c1ccc(OC)cc1)C=C(c1ccccc1)N2 (stereo not drawn)
  52, 3.4
75: O=C(O)c1ccc(Nc2nc(-c3cccnc3)nc3ccccc23)cc1
  -10, -1.7
76: Cc1cc(/C=N/Nc2nc(N)ncc2[N+](=O)[O-])c(C)n1-c1cccc(C(F)(F)F)c1
  9, -10
77: Oc1ccc(N=Nc2ccc3c(c2)OCO3)c2ccccc12
  -24, -3.8
78: C#CCOCCOCCOCCNc1nc(N2CCN(C(=O)CCCCCCCCCCNC(=O)[C@H](CO)n3cc(CCCSC)nn3)CC2)nc(N2CCN(C(=O)CCCCCCCCCCNC(=O)[C@@H]([C@H](C)O)n3cc(C)nn3)CC2)n1
  -6, -0.4
79: Cc1noc(C)c1S(=O)(=O)NCCCN1CCN(Cc2ccccc2)CC1
  10, 6.5
80: CC(=O)OC[C@]12CC[C@H]3[C@@](C)(CC[C@H]4C(C)(C)CCC[C@]34C)[C@@H]1C[C@H](C1=CC(=O)O[C@H]1OC(C)=O)O2
  7, 1.2
81: CCSc1nnc(NC(=O)/C=C/c2ccc3c(c2)OCO3)s1
  2, 4.1
82: O=C(CN1C(=O)NC2NC(=O)NC21)N/N=C/c1ccccc1F (stereo not drawn)
  -8, -1.2
83: CCn1c(SCC(=O)N/N=C/c2ccccc2OCC(=O)O)nnc1-c1ccccc1
  -4, 0.6
84: CN1C2C=C3C(C#N)=C(N)C(C#N)(C#N)[C@@H](c4ccsc4)[C@@H]3C1CC2 (stereo partly drawn)
  -22, -0.7
85: CNC[C@H](Cc1cccc2ccccc12)NC[C@H](CCSC)NCC1CCC(C(C)(C)C)CC1 (stereo partly drawn)
  -23, 3.3
86: CC1CCN(C(=O)C2CCN(CCCc3ccccc3)CC2)CC1
  -7, 3.2
87: O=C(CCCCCNC(=O)c1ccccc1)N=Nc1c(O)[nH]c2c(Br)cc(Br)cc12
  -1, -2.4
88: COc1ccc(C(OCC2CO2)c2ccc(OC)cc2)cc1 (stereo not drawn)
  0, -2.8
89: COc1ccc(C2=NNC(c3cc(Cl)cc4c3OCOC4)C2)c(O)c1 (stereo not drawn)
  9, 3.3
90: Cn1nc(OC(=O)Nc2ccccc2)cc1C(F)(F)F
  14, 0.2

(further entries)
Order of values – ALR inh, LANA-H2A inh
91: COc1cc(C)c(CNc2ccc(OC)c(OC)c2)cc1C
  82*, 4.3
92: Cc1nn(C)c(C)c1/C=N/NC(=O)c1csc2ccccc12
  -20, -5.2
93: O=C(c1ccc(F)cc1)C1CCN(CCn2c(=S)[nH]c3ccccc3c2=O)CC1
  49, -3.7
94: CC(C)(C)OC(=O)NCCCCC1=CC2=CC(=O)C(C)(OC(=O)c3ccco3)C(=O)C2=CO1 (stereo not drawn)
  -4, 2.7
95: COc1ccc(NC(=S)N(C(C)C)C2CCN(C(C)C)CC2)cc1Cl
  -13, 2.8
96: O=C(/C=C/c1ccc(F)cc1)Nc1nc2ccccc2[nH]1
  -24, 1.0
97: COc1ccc(C(C#N)Nc2ccccc2)cc1 (stereo not drawn)
  -4, 3.9
98: COc1ccc(CNc2cc(C)cc(C)c2)cc1OC
  17, -5.4
99: COC(=O)N/N=C(/c1ccccc1)C1CCCCC1
  -9, 1.4
100: C=CCn1c(-c2ccc(=O)n(Cc3ccccc3)c2)n[nH]c1=S
  -12, 7.1
101: Cc1ccc(OCc2nnc(NC(=O)OCC(C)C)s2)c(C)c1
  -11, 3.1
102: COc1ccc(Cl)cc1Nc1nc(-c2sc(NC(=O)c3ccccc3)nc2C)cs1
  44, 0.4
103: CCOc1ccc(/C=C2\N=C(c3cccs3)OC2=O)cc1OC
  -1, -2.0
104: O=C1[C@@H]2C3C=CC(O3)[C@@H]2C(=O)N1c1ccccc1
  -5, 0.4
105: CNC(=O)c1cc2c(ccc3ccccc32)oc1=N
  -22, -3.2
106: CC(Oc1ccccc1)C(=O)N1CCC2(CC1)Oc1ccc(Cl)cc1C(=O)C21CC(c2ccccc2)=NO1 (stereo not drawn)
  -5, 5.6
107: COc1ccc(-c2ccc(CNCc3ccccn3)o2)cc1Cl
  7, -4.8
108: O=C(COc1cccc2ccccc12)Nc1cc(S(=O)(=O)N2CCOCC2)ccc1N1CCOCC1
  -7, -0.8
109: N#CC(C#N)=Cc1ccccc1OCc1ccccc1
  20, -7.3
110: CCN1CCN(CCCCSc2ccccc2)CC1
  -2, -4.7
111: CSc1nnc2n(Cc3ccccc3)c(=O)c3c4c(sc3n12)COC(C(C)C)C4 (stereo not drawn)
  -16, 2.9

Screening data as filed in PubChem BioAssay.
